HSD17B inh: blocks hydroxysteroid 17-beta dehydrogenase activity; Q99714; recombinant HSD17B10, NADH fluorescence kinetic; many of its hits are not listed in these tables; Potency, µM (titrated, usually from 57.1 µM), for the others: at the top dose activity change, negative = inhibition, usual class: inhibitors; 75,000 compounds, 7.6% hits; AID 893; active = well fitted inhibition curve with a large enough effect; inconclusive = small, poorly fitted or top-dose-only effect; inactive = no such curve, though single readings can be large or run the other way;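 note: the protocol describes HADH2 (HSD17B10) and not the HSD17B4 of the title; nearly all actives have a fitted effect of over 70% in size; most hits overshoot -100% by far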
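Activity followed as NADH fluorescence increase (ex 360, em 450 nm) every 30 seconds for 4 min, using final 90 uM beta-hydroxybutyryl CoA and 1 mM NAD+. Recombinant His-tagged enzyme, 20 nM, pH 9.0 Tris buffer, 15 min compound preincubation.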
* = called active by the depositor; ? = inconclusive; ! = not confirmed by another sample; [ ] = dose if it differs, or a comment. % is set by controls: 0 for no effect and ±100 for the full control effect; potency is the fitted concentration of half-maximal effect. Some of the compounds tested. The share of hits here may be higher or lower than overall.

canonical_smiles,HSD17B inh
CC(C)N(Cc1ccccc1)C(=O)COC(=O)c1ccc2c(c1)OCCO2,1.8%
CC1CN(c2oc(COc3ccc(Cl)cc3Cl)nc2C#N)CC(C)O1 (stereo not drawn),1.9%
COc1ccc2c(C)cc(=O)oc2c1,31.6µM*
CCOc1ccc(-c2nc(-c3ccccc3)no2)cc1OCC,25.1µM*
Cc1cc(C)n2cc(CSc3nc4cc(Cl)ccc4o3)nc2n1,?
Cc1ccc(S(=O)(=O)NCC(=O)OC2CCOC2=O)cc1 (stereo not drawn),7.4%
CC(C)(C)/C(O)=C(/C#N)c1nc2ccccc2[nH]1,-7.1%
c1ccc2sc(SCc3ccc(-c4nnco4)cc3)nc2c1,-8.0%
O=C1CC(c2ccc3c(c2)OCO3)CN1 (stereo not drawn),5.2%
COC(=O)c1ccc2c(=O)n(CCN3CCOCC3)c(=S)[nH]c2c1,-20.1%
COc1ccc(-c2ccc(SCC(=O)N3CCCC3)nn2)cc1OC,-8.9%
COc1ccc(N2CCN(C(=O)CSc3ccccc3N)CC2)cc1,-8.3%
Cc1ccc(N2C(=O)[C@@H]3C(c4ccc(F)cc4)=NO[C@@H]3C2=O)cc1,0.8%
COc1ccc(C(=O)N2CCC3(CCCN(c4ccccc4)C3)CC2)cc1,-4.5%
CCCN1Cc2cccc(C(=O)NCCCOC(C)C)c2C1=O,11.8%
O=C(CCN1c2ccccc2Sc2ccccc21)OCC(=O)N1CCN(C(=O)c2ccco2)CC1,?
O=C1NC2(CCCCC2)Cc2ccccc21,-7.2%
O=C(Nc1ccc2c(c1)OCO2)C(c1ccc(Cl)cc1)N1CCC2(CC1)OCCO2 (stereo not drawn),1.2%
CCOCCN1CCN(c2c3c(nc4cc(-c5ccc(F)cc5)nn24)CCC3)CC1,1.7%
O=C(/C=C/c1ccc(O)c(O)c1)OC(Cc1ccc(O)c(O)c1)C(=O)O (stereo not drawn),15.8µM*!

Shown with each value named: 4 of the compounds above
Compound: COc1ccc2c(C)cc(=O)oc2c1
- HSD17B inh = 31.6µM*

Compound: CCOc1ccc(-c2nc(-c3ccccc3)no2)cc1OCC
- HSD17B inh = 25.1µM*

Compound: Cc1cc(C)n2cc(CSc3nc4cc(Cl)ccc4o3)nc2n1
- HSD17B inh = ?

Compound: Cc1ccc(S(=O)(=O)NCC(=O)OC2CCOC2=O)cc1 (stereo not drawn)
- HSD17B inh = 7.4%

(more compounds)
canonical_smiles,HSD17B inh
CCOC(=O)c1nnn(-c2nonc2N)c1CSc1ccccn1,6.3%
COC(=O)Sc1nnc(-c2ccc(Br)cc2)o1,?
CC(=O)N1CC=CC1(CC(C)C)C(=O)O (stereo not drawn),0.2%
CCCC(=O)c1cn(CC(=O)OC)c2ccccc12,2.0%
CCc1nnc(NC(=O)CSc2nnc(-c3ccccc3O)n2-c2ccc(C)cc2C)s1,?
CC(C)(C)c1ccc(NC(=O)NCc2ccco2)cc1,-4.1%
O=C(c1ccco1)N1CCN=C1SCc1ccccc1Cl,-3.1%
Cc1nc(NC2CCCCC2)c2nc(-c3ccccc3)n(CCCN3CCCCC3C)c2n1 (stereo not drawn),20µM*
CCC(=O)Nc1cccc(NC(=O)CSc2nnnn2Cc2ccccc2)c1,-4.5%
CCNC(=O)CN(CCc1ccccc1)S(C)(=O)=O,-0.1%
O=C(COc1ncnc2ccccc12)NCc1ccc2c(c1)OCO2,-1.8%
COc1ccc(N2CCN(C(=O)C3CCC(Cn4c(=S)[nH]c5ccccc5c4=O)CC3)CC2)cc1 (stereo not drawn),11.5%
COc1ccc(CN(CC(=O)NC2CCCC2)C(=O)c2onc(C(N)=O)c2N)cc1,9.4%
O=C(O)c1ccc(N[C@H](c2ccccc2)c2ccc3cccnc3c2O)cc1,-22.4%[11.4 µM]
CC(C)=CCc1c2c(c(O)c3c(=O)c(O)c(-c4ccccc4)oc13)C=CC(C)(C)O2,14.6%
CCCCc1cc(=O)oc2cc(OCC(=O)N(CC)CC)ccc12,20µM*
COC(=O)c1cc(OC)c(OC)cc1NC(=O)CSc1nnc(-c2cccnc2)n1C,-5.3%
O=C(CCCC(=O)NCC1CCCO1)NCC1CCCO1 (stereo not drawn),-5.1%
CN1C2CCC1CC(OC(c1ccccc1)c1ccccc1)C2 (stereo not drawn),5.2%
CCC(=O)N1CCCc2cc(S(=O)(=O)N3CCN(c4ncccn4)CC3)ccc21,2.7%
CC(C)OCCCNC(=O)CN1CCN(Cc2ccccc2Cl)C1=O,-0.2%
O=c1c(-c2ccco2)[n+]([O-])c2ccccc2n1OCc1ccccn1,6.2%
O=C(CCCn1c(=S)[nH]c2cc3c(cc2c1=O)OCO3)N1CCc2ccccc2C1,-20.4%
O=C(NCCOC(=O)c1cccs1)c1cccnc1,-4.0%
Cc1oc(-c2ccc(F)cc2)cc1-c1nn2c(-c3ccco3)nnc2s1,15.8µM*
CCN=C(N)CSS(=O)(=O)O,-6.3%[11.4 µM]
COc1ccc(Oc2ncc3nc(C)c(=O)n(C)c3n2)cc1,-5.5%
CCc1cccc2c1NC(=O)[C@]21[C@@H]2C(=O)N(Cc3ccccc3)C(=O)[C@@H]2[C@@H]2CCCN21,-13.5%
Cc1ccccc1-n1nc2c(c1NC(=O)c1c(-c3ccccc3Cl)noc1C)CS(=O)(=O)C2,1.0%
CCOC(=O)c1ccc(NS(=O)(=O)c2cc(C)ccc2OC)cc1,4.4%
Cc1ccc(NC(=O)COc2nc(C)cs2)cc1,8.7%
CCNc1nc(N)nc(Oc2ccc(OCCOc3ccccc3)nn2)n1,11.3%
O=C(c1cnccn1)N1CCC2(CCN(Cc3ccncc3)CC2)CC1,5.9%
O=C(CSc1nnc(-c2ccc(Cl)s2)o1)N1CCCc2ccccc21,?
O=c1[nH]cc(CS(=O)(=O)Cc2c[nH]c(=O)[nH]c2=O)c(=O)[nH]1,1.2%[11.4 µM]
O=C(CCCCn1c(=O)[nH]c2ccccc2c1=O)NC1CCN(Cc2ccccc2)CC1,?
c1ccc2c(c1)CCCN2Cc1nnc2n1CCCCC2,1.4%
CCOc1ccc2nc(SCC(=O)NC3CCS(=O)(=O)C3)[nH]c2c1 (stereo not drawn),1.7%
O=C1c2ccccc2N[C@H](c2cc(Cl)cc(Cl)c2O)N1CCc1ccccn1,2.6%[11.4 µM]
COc1ccc(C(=O)N2CCC3(CCN(CC(C)C)CC3)CC2)cc1,6.5%
CCC(=O)Nc1ccc2c(c1)C(=O)N(C1CCCCC1)C2=O,25.1µM*
O=C1Nc2ccccc2C1=Nc1cccc2ncccc12,2.6%[11.4 µM]
N#Cc1ccccc1NC1=CC(=O)CCC1,3.1%
CCOC(=O)CSc1nc2c([nH]c3ccccc32)c(=O)n1C,1.2%
COc1ccc(C(=O)c2ccc(OC)cc2O)c(O)c1,-3.1%
CC(C)NC(=O)CSc1nc2ccccc2n1CC(=O)N1CCc2ccccc21,18.2%
O=C(O)c1cc(S(=O)(=O)N2CCOCC2)c(Sc2ccccn2)cc1Sc1ccccn1,-5.8%
CC1CCN(c2nc3c(c(=O)[nH]c(=O)n3C)n2Cc2ccccc2)CC1,6.2%
CCCCCCCC1=CC2=CC(=O)C(C)(OC(C)=O)C(=O)C2=CN1CCc1ccccc1 (stereo not drawn),-21.4%[11.4 µM]
CCC1=C2CC[C@H]3C(=O)N(C)C(=O)[C@H]3[C@H]2[C@@]2(Cc3ccccc3)C(=NCCc3c[nH]c4ccccc34)OC(=O)N2C1=O,1.2%
Cc1ccc(C(=O)Nc2ccccc2NC(=O)c2ccc(C)o2)o1,-11.4%
COc1cccc(CN2C(=O)CN(C3CCCCC3)C(=O)C2c2ccc(F)cc2)c1 (stereo not drawn),-6.1%
OC1(c2ccc3c(c2)OCO3)CCN(Cc2ccccn2)CC1,-2.3%
CC(C)CN1CCC2(CC1)CCN(S(=O)(=O)c1ccccc1)CC2,5.2%
CCC(C)NS(=O)(=O)c1ccc(OCC(=O)NCc2cccnc2)cc1 (stereo not drawn),-1.6%
CCCC[C@@H]1C[C@H]1C(NC(=O)c1ccccc1)c1ccc(C(=O)OC)cc1 (stereo partly drawn),-2.0%
CCC1=C2CC[C@H]3C(=O)N(CC(=O)OC)C(=O)[C@H]3[C@H]2[C@@]2(Cc3ccccc3)C(=NCCc3c[nH]c4ccccc34)OC(=O)N2C1=O,0.9%
CCOCCc1c(O)nc(SCC(=O)NCc2ccco2)[nH]c1=O,-6.7%
CC(C)C(=O)Nc1ccc(NC(=O)c2cccc(F)c2)cn1,-17.2%
CCOC(=O)N1CCC(N2C(=O)c3ccccc3C2=O)CC1,9.1%

(list continues)
structure	HSD17B inh
COc1ccc(CCNC(=O)CN2CCC(C(N)=O)CC2)cc1	1.1%
CCCCNC(=O)CCCCCn1c(=O)[nH]c2cc(OC)c(OC)cc2c1=O	31.6µM*
Cc1ccc(-c2ccc(CCC(=O)O)n2NC(=O)c2ccco2)cc1	-3.2%
Cc1cc(C(=O)Cn2cncn2)c(C)n1CCc1ccc(F)cc1	-3.4%
COc1ccc(NC(=O)N2CC3(CCN(C(=O)c4cccc(F)c4)CC3)C2)cc1	12.6%
CCN(CC)S(=O)(=O)c1ccc(NC(=O)c2cccc3c2C(=O)N(CCOC)C3)cc1	?
COC(=O)C/C=C/C(C)C(OC)c1ccccc1Br (stereo not drawn)	3.6%[11.4 µM]
COc1ccc(-n2c(C)cc(C(=O)Cn3nnc4ccccc4c3=O)c2C)cc1	13.1%
Cn1c(Cc2ccccc2)nnc1SCC(=O)Nc1ccc2c(c1)OCCO2	0.3%
Cc1cccc(C)c1NC(=O)CSc1nnc(Cn2nnc(-c3ccccc3)n2)n1-c1ccccc1	-7.5%
COc1ccccc1N1CCN(C(=O)Cc2cccs2)CC1	-6.4%
Cn1c(=O)oc2cc(S(=O)(=O)N3CCCC3)ccc21	-3.0%
CCCc1ccc(C(C)NC(=O)c2cnccn2)cc1 (stereo not drawn)	1.9%
CC(NC(=O)CC(O)(C(F)(F)F)C(F)(F)F)c1ccccc1 (stereo not drawn)	-3.2%
O=S(=O)(Nc1nc(CN2CCOCC2)nc2sc3c(c12)CCCC3)c1cc(F)ccc1F	?
COc1ccccc1S(=O)(=O)Cc1ccc(C(=O)N2CCN(c3ccccn3)CC2)o1	-7.6%
CCn1cc(C(=O)Nc2ccc(NC(=O)c3ccco3)cc2)c(=O)c2ccc(C)nc21	11.9%
NC(=O)c1c(-c2ccccc2)oc2ccc(O)cc12	-16.8%
COc1cccc2cc(C(C)=O)c(=O)oc12	-0.3%
O=C(c1ccc(-c2ccccc2)cc1)N1CCN(c2ncccn2)CC1	-5.0%
COC(=O)c1cc(OC)c(OC)cc1NC(=O)CCCCCN1C(=O)CCC1=O	?
CC(C)CC(c1nnnn1C(C)(C)C)N1CCN(C2CCCC2)CC1 (stereo not drawn)	0.6%
COc1cccc(NC(=O)c2ccccc2-c2nc(-c3ccc(F)cc3)no2)c1	-22.2%
CCCC(=O)Nc1cccc(C(=O)Nc2nccs2)c1	2.8%
CN1CCN(CC(=O)Nc2sc3c(c2C#N)CCC(C(C)(C)C)C3)CC1 (stereo not drawn)	5.6%
O=C(c1ccco1)N1CCN(C(c2ccccn2)c2nnnn2C2CCCC2)CC1 (stereo not drawn)	8.2%
Cn1c(=O)oc2cc(S(=O)(=O)NCCC(=O)NC3CCCc4ccccc43)ccc21 (stereo not drawn)	-0.9%
Cc1ccc(OCCC(=O)OCC(=O)Nc2ccc(Cl)cn2)cc1	?
CCn1c(Cc2ccccc2)nnc1SCC(=O)Nc1nc(C)c(C)s1	9.4%
COc1ccc(-c2noc(-c3ccccc3C(=O)Nc3cccnc3)n2)cc1	2.9%
CCc1c(O)c2c(c(O)c1C(C)=O)C(=O)c1c(cc(O)c(C(=O)O)c1C(=O)O)C2=O	-27.1%[11.4 µM]
O=C(OCC(=O)N1CCN(C(=O)c2ccco2)CC1)C1=COCCO1	7.3%
Cc1ccc(N)cc1CN1CCCC1=O	7.0%
COC(=O)N1CC=CC1(C)C(=O)NCc1cc(F)cc(C(F)(F)F)c1 (stereo not drawn)	-2.8%
c1ccc(C2[C@H]3CN(CC4CCCCC4)[C@H](c4ccccc4)C34CC2(c2cccnc2)C4)cc1 (stereo partly drawn)	-6.8%
Clc1ccc(NC2=NCCC2)cc1Cl	-0.2%
CCOc1ccc(-n2c(COc3ccccc3)nnc2SCC(N)=O)cc1	7.5%
COc1cc2[nH]c(=S)n(NC(=O)CC(C)C)c(=O)c2cc1OC	-7.0%
N#CCC(=O)N1CCn2c1nc1ccccc12	-1.3%
O=C(c1cccc(Cl)c1)N(Cc1cccs1)C1CCS(=O)(=O)C1 (stereo not drawn)	12.1%
Cc1cc2nc(SC(C)C(=O)O)[nH]c2cc1C (stereo not drawn)	13.5%
O=C(NCCN1CCOCC1)c1noc2c1CCc1ccccc1-2	-0.2%
CC(C)(C)OC(=O)N1CCC[C@@H]1C(=O)N1CCC(C(=O)O)CC1	-3.2%

Two of the compounds above, with each value named.
> Cc1ccc(N)cc1CN1CCCC1=O
  HSD17B inh: 7.0%
> COc1ccccc1S(=O)(=O)Cc1ccc(C(=O)N2CCN(c3ccccn3)CC2)o1
  HSD17B inh: -7.6%
